# From PubChem BioAssay
# AID504770 – E. coli YBA685 growth inhibition, screen for V. cholerae RctB inhibitors; z-score (no concentration beside the values); 130,000 tested, 0.27% active; E. coli YBA685 rctB-dependent plasmid, OD600 growth, 3 h; stronger effect = lower value;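 active = z-score under -2 on both plates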;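 note: wells of about 30 µL received 100 nL stock; score is relative to mean and SD of the test wells; the first replicate is given; strong numbers were not always called active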
# CapD inh – blocks the Bacillus anthracis CapD enzyme. 140,000 tested, 0.23% active. AID 492967. z-score (test concentration not listed). purified CapD enzyme, fluorescence intensity read-out; stronger effect = lower value; some hits fall short of the stated cut;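 active = z-score under -4 in either of two replicates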;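 note: stock transfer was 100 nL into about 40 µL; score is relative to mean and spread of the plate; one replicate is shown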
# Numbers without * were called inactive; . = no result given. Some of the compounds tested (hit frequency here may not be typical).
SMILES,AID504770,CapD inh
CC(=O)Cc1ncn(-c2cc(C)on2)n1,.,-0.805
CCc1cccc(NC(=O)C(CC(C)C)NS(=O)(=O)c2ccc3c(c2)CCN3C(C)=O)c1 (stereo not given),-0.55,0.01
CCOC(=O)CN1C(=O)C2(OCCCCO2)c2ccccc21,0.15,.
Cc1[nH]n(-c2ccccc2)c(=O)c1C(c1ccc(OC(=O)c2ccc(C(C)(C)C)cc2)cc1)c1c(C)[nH]n(-c2ccccc2)c1=O,.,-0.165
CN(C)C(CNS(=O)(=O)c1ccc(O)c(C(=O)O)c1)c1ccccc1 (stereo not given),-0.4,.
NC(=O)c1cc2ccc(O)cc2oc1=O,-0.1,.
Cc1cc(C)c(S(=O)(=O)N2CCSC2C)c(C)c1 (stereo not given),0.55,0.545
CC(CNC(=O)Cn1c(=O)oc2ccccc21)c1ccccc1 (stereo not given),0.1,-1.15
CCc1ccc(OCC(=O)OCC(=O)N2CCc3ccccc3C2)cc1,-1,-0.755
CCCCNC(=O)c1cc2c(s1)-c1c(C)nn(-c3ccccc3)c1CC2,-0.5,69
CC(=O)Oc1ccc2c3c(c(=O)oc2c1)CCCC3,-0.5,6.09
O=C(c1nn2c(C(F)(F)F)cc(-c3ccco3)nc2c1Cl)N1CCN(c2ccc(F)cc2)CC1,.,0.225
CC(=O)N1c2ccc(S(=O)(=O)NCC3CCC(C(=O)N4CC(C)CC(C)C4)CC3)cc2CC1C (stereo not given),3.3,-1.23
COc1ccc(OC)c(NS(=O)(=O)c2cc(-c3cc(C)no3)ccc2C(C)C)c1,0.55,-0.1
CC(C)c1cc(C(C)C)c([N+](=O)[O-])c(C(C)C)c1,.,0.485
COc1ccccc1NC(=O)c1nn(C)c(=O)c2ccccc12,-2.85,-0.145
CCCCn1c(CSc2ncccc2C(=O)O)nc2cc(S(=O)(=O)N3CCOCC3)ccc21,1.5,.
CSc1cccc(NC(=O)CSc2nncn3c2cc2sccc23)c1,3,-1.56
CCCCCCCCCc1cnc(-c2ccc(OCCCCCC)cc2)nc1,.,0.21
Cc1cc(I)c(S(N)(=O)=O)cc1C,1,-0.23
CCn1c(SCC(=O)NC2CCCC2)nnc1C(C)C,0.55,.
CCC1C(=O)N=C(SCC(=O)Nc2nc3ccc(C)cc3s2)NC1=O (stereo not given),1.8,0
CC(C)Oc1cc(N2C(=O)CSCC2=O)c(Cl)cc1Cl,-0.3,-0.295
COc1ccc(N(CC(=O)N2CCN(c3ccccc3OC)CC2)S(=O)(=O)c2ccc(C)cc2)cc1,.,-0.9
CC(=O)Nc1cn(-c2ccccc2)nc1-c1ccccc1,0.1,-0.62
COc1nc(NCCN2CCOCC2)nc(Nc2ccc([N+](=O)[O-])cc2)n1,.,-0.475
CCn1cc(C(=O)N=c2sc3ccccc3n2C)c(=O)c2ccc(C)nc21,0.75,.
COc1ccc(Cc2nnc(SCC(=O)Nc3ccc(OC)cc3)o2)cc1,-0.55,1.3
Cc1ccccc1NC(=O)CSC1=Nc2ccccc2C2CC=NN12 (stereo not given),0.25,.
CC(C)(C)C(=O)CSc1nc2ccccc2nc1Cc1cccc([N+](=O)[O-])c1,.,0.46
COc1ccc(C2=NN3C(C2)c2ccccc2OC3c2ccc(OC(=O)c3ccc(Br)cc3)cc2)cc1 (stereo not given),.,-0.12
CCOC(=O)c1[nH]c2ccccc2c1-n1cccc1,-0.8,4.42
COc1ccc(SCC(C)(O)C(=O)Nc2ccc(C(F)(F)F)cc2)cc1 (stereo not given),.,-0.035
COC(=O)c1c(N)c(C#N)c2n1CCC2,-1.85,14.3
Cc1cccc(C)c1NCc1n[nH]c(=S)n1-c1ccccc1,-0.3,-0.38
c1csc(-c2nc3sc(-c4cccs4)nc3s2)c1,-0.5,-0.195
COCc1cc(C)nc(SCc2ccc(Cl)cc2Cl)c1C#N,.,-0.335
COc1cccc(CO/N=C/c2cccn2-c2nccc(OC)c2C#N)c1,.,-0.565
CCOC(=O)C1=NN(c2ccc(Cl)cc2)C(c2ccc(Cl)cc2)N1C(C)(C)C (stereo not given),.,-0.185
CCN1CCC(N2CCN(c3ccccc3)CC2)CC1,-1.15,-0.07
O=c1cnc(-c2ccccc2)c(-c2ccccc2)[nH]1,1.6,1.39
Cc1nc(N2CCN(c3ccccn3)CC2)c2c(C)c(C(=O)N3CCN(Cc4ccccc4)CC3)sc2n1,.,-0.74
O=C(CCC1CCCCC1)NCc1cccs1,-0.65,-0.17
N#C/C(=C\c1ccc(-c2ccc(SC(F)F)cc2)o1)C(=O)Nc1nc2ccccc2s1,-0.15,.
CC(C#N)Sc1nnc(-c2cccs2)n1CC1CCCO1 (stereo not given),-0.7,.
COc1ccc(CCNC(=O)c2cc3ccccn3n2)c(OC)c1OC,0.05,1.65
COC(=O)C1CCN(S(C)(=O)=O)CC1,-0.5,.
Clc1ccc(N=Nc2cnc(-c3cccnc3)nc2-c2ccco2)cc1,.,0.085
COc1ccc2c3c(ccc2c1)C(=O)[C@@](C)(CCC(=O)O)CC3,0,45
O=C(Cn1c(CCCO)nc2ccccc21)NC1CC1,-0.85,.
CCN1CCc2c(sc3c2C(=O)NC(c2ccc(COc4ccc(Cl)c(Cl)c4)o2)N3)C1 (stereo not given),-0.3,1.79
CC(C)Cn1cc(NC(=O)N2CCCCCC2)c2ccccc2c1=O,-0.05,16.8
Cc1c(C(=O)NCCCN2CCOCC2)oc2ccc3c(c12)C(=O)CC(C)(c1ccc(Cl)cc1)O3 (stereo not given),-0.15,-0.045
COc1ccccc1-c1noc(CCC(=O)Nc2ccccc2C(F)(F)F)n1,-0.8,-1.32
CCCCn1c(/N=C/c2c[nH]c3ccccc23)nc2ccccc21,-1.3,.
CCCN(CCC)C(=O)c1ccc(Cl)c(Cl)c1,-0.8,.
Cc1ccc2oc(=O)c3cc(C(=O)N(C)c4ccccc4)sc3c2c1,0.25,1.01
CCc1ccccc1NC(=O)c1cc(CC(C)C)on1,-0.4,-0.365
CSc1ccc(/C=C2\SC(N)=NC2=O)cc1,0.65,.
CCOC(=O)N1CCC(n2c(SCc3cc(F)ccc3F)nc3ccccc3c2=O)CC1,.,0.265
# Next section:
SMILES,AID504770,CapD inh
O=C(NCc1ccc2c(c1)OCO2)c1ccc(NC(=O)C2CCCO2)cc1 (stereo not given),1.7,0.22
N#Cc1ccc(-c2ccc(F)cc2)n(Cc2cccc(C(F)(F)F)c2)c1=O,.,0.275
O=c1[nH]nc(Cc2ccccc2)c2ccccc12,-0.35,-0.14
Cc1ccc(S(=O)(=O)N2c3ccccc3C3N(c4ccc(SCC(=O)O)cc4)C2c2ccccc2N3S(=O)(=O)c2ccc(C)cc2)cc1,.,0.905
Cc1cc2ncn(C3CC(=O)N(c4ccccc4Cl)C3=O)c2cc1C (stereo not given),1.55,-0.345
CC(=O)Nc1nc(COC(=O)CNC(N)=O)cs1,0.75,.
CC1CC(C)CN(S(=O)(=O)c2ccc(NC(=O)c3ccc(C#N)cc3)cc2)C1 (stereo not given),-0.2,.
Cc1[nH]c2ccccc2c1SCC(=O)N1CCCCC1,-0.5,.
O=C(Nc1cccc(-c2cn3cccnc3n2)c1)c1ccccc1C(F)(F)F,1.55,0.305
Cc1ccc(S(=O)(=O)N(C)CC(=O)OCc2nc3ccc(Cl)cc3n2CCO)cc1,-0.35,.
Nc1nc(-c2ccccc2)cs1,0.75,0.56
CCOc1ccc2nc3n(c2c1)CC(O)CS3 (stereo not given),-0.2,-0.165
O=C(CSc1c2c(nc3ccccc13)CCCC2)N1CCCCC1,-0.6,-0.345
Cc1c(C(=O)Nc2ccccc2)oc2ccccc12,0.4,0.595
OCc1ccc(-c2cccc(Cl)c2)o1,-0.6,3.58
COC(=O)c1ccc(NC(=O)CSc2nnc(-c3ccccc3Cl)n2N)cc1,1.55,-0.725
O=P1(Nc2ccc(Cl)cc2)CC=CC1,-0.55,.
O=C(NCCN1CCCCC1)c1ccc(-c2ccccc2)cc1,-0.55,-0.055
CC(NC1CC1)C(=O)N1CCN(C(=O)c2ccco2)CC1 (stereo not given),0.2,.
COc1ccccc1OCCOc1c(Br)cc(C=C2C(=O)NC(=O)NC2=O)cc1OC,.,-0.325
COc1ccc(S(=O)(=O)N(C)c2ccnc(C(=O)N3CCCCC3)c2)cc1,0.35,0.025
O=C(CNc1cccc(C(F)(F)F)c1)N/N=C1\CC2CC=CC12 (stereo not given),0.6,.
O=C(CNC(=O)c1cc2sccc2nc1C(F)(F)F)c1ccc(Cl)cc1,.,-0.02
CN(C)CCC(=O)N1c2ccccc2Sc2ccc(C(F)(F)F)cc21,-0.05,-0.21
CCN(c1ccccc1)S(=O)(=O)c1ccc(F)c(C(=O)Nc2ccc(C)c(F)c2)c1,.,-0.59
CCn1cc(SCC(=O)N2N=C(c3cccs3)CC2c2ccc(C)cc2)c2ccccc21 (stereo not given),0.7,0.165
O=C(Nc1cc(Cl)ccc1Oc1ccccc1)c1cc(Br)cc(Br)c1O,.,3.58
CC1=C(C#N)C(c2cn[nH]c2-c2cccs2)C2=C(CCCC2=O)N1 (stereo not given),2.35,72.9
O=C(O)/C(=C\c1ccccc1)NC(=O)c1ccccc1,0.35,.
CC(C)Nc1nc(-c2ccccc2)nnc1-c1ccccc1,-0.35,-0.8
Cc1ccc2[nH]c(C)c(CN3CC(C)OC(C)C3)c(=O)c2c1 (stereo not given),-1,.
CN(C)/C=C1\OC(=O)c2ccccc21,-0.4,0.045
CC1CCN(S(=O)(=O)c2ccc3c(c2)oc(=O)n3C)CC1,-1.15,0.41
CCOc1ccc(-c2[nH]nc3c2C(c2ccccc2OC)C(C#N)=C(N)O3)c(OCC)c1 (stereo not given),.,-0.115
Cc1ccc(N2CCN(c3ccc(C)cc3)C2c2ccc(Cl)cc2)cc1,.,6.28
CCOC(=O)C12CCC(C(=O)OCC)(CC13SCCS3)C1(C2)SCCS1,.,-0.705
CCN(C(=O)CSC1=N/C(=C\c2ccco2)C(=O)N1c1ccc(OC(F)F)cc1)C1CCS(=O)(=O)C1 (stereo not given),-0.55,.
Cc1ccccc1CS(=O)(=O)Cc1ccc(C(=O)N2CCC3(CC2)OCCO3)o1,1.1,-0.805
CCOC(=O)c1sc(N)c(C#N)c1COC(=O)c1cccc(OCc2c(C)noc2C)c1,0.55,.
Cc1ccc(SCc2cc(=O)n3c(nc4ccccc43)[nH]2)cc1,3.25,0.895
CCOC(=O)C1=C(C)OC(N)=C(C#N)C1c1ccc(F)cc1 (stereo not given),.,1.05
NS(=O)(=O)c1ccc(F)cc1F,-0.55,-0.585
CNC(=O)Oc1ccc(-c2nc(CSc3ccc(Cl)cc3)cs2)cc1,0.45,3.73
N#CCOc1ccc2oc(-c3ccccc3)cc(=O)c2c1,-0.6,7.62
O=S(=O)(Cc1cccc(C(F)(F)F)c1)c1cnc2ccccc2n1,.,-0.855
Cc1nc2ccc(C(=O)OCC(=O)Nc3cccnc3Cl)cc2nc1C,1.45,.
CS(=O)(=O)c1ccc(CN(Cc2cccc(C(F)(F)F)c2)C(=O)c2ccc(C(F)(F)F)cc2)cc1,.,-0.18
CCn1c(-c2ccccc2)c(C(=O)CC#N)c2ccccc21,2.1,-0.04
O=C(CN1CCCC1)N/N=C/c1c(O)ccc2ccccc12,-0.85,.
CCOC(=O)N1CCN(C(=O)c2sc3nc(C)nc(N4CCC(C)CC4)c3c2C)CC1,.,1.26
CN(C(=O)c1ccco1)C1CC(C)(C)N(C)C(C)(C)C1,0,-0.825
CCN(CC)Cc1cc(Cl)c2cccnc2c1O,-0.25,-1.03
CCNC(=O)CNCc1c(C)nn(CC(C)C)c1Cl,0.5,.
Cc1cc(C(=O)CSc2ccc(Cl)cc2)cc(C)c1OC(=S)N(C)C,.,-0.265
NS(=O)(=O)c1ccccc1NC(=S)Nc1ccccc1S(N)(=O)=O,0.35,0.515
O=C(CC1CCCC1)Nc1cccc(Br)c1,-0.95,-1.37
CC(NC(=O)c1ccccc1NC(=O)c1ccccc1)C(=O)N1CCN(C)CC1 (stereo not given),.,-0.745
O=C(c1ccco1)N1N=C(c2c(-c3ccccc3)c3cc(Cl)ccc3[nH]c2=O)CC1c1ccco1 (stereo not given),-0.55,2.74
CC(C)(O)CNS(=O)(=O)c1ccccc1,-0.65,.
COc1ccc2cc(C(=O)NCC(=O)O)sc(=O)c2c1OC,-0.45,-1.25
